Assay outcomes deposited in PubChem by Fisher Drug Discovery Resource Center.
NPYLR7 ag – activates Aedes aegypti NPYLR7 receptor; HEK293T NPYLR7/Galpha15, GCaMP6s calcium fluorescence; activation, % at 10 µM; actives 0.15% (n = 270,000); in the data active means activation above about 40%;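 further: 0% = vehicle and 100% = reference agonist at the receptor; some compounds past the cut are filed as inactive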
NPYLR7 ag max-min – recorded beside NPYLR7 ag, whose call it bears; activation, %; measured here: Max-Min RFU normalised activation; some inactives read as strong as hits;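 span of the calcium signal over five minutes; 0% = vehicle and 100% = native peptide agonist; compound fluorescence can raise it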
* hit, by the source's call; & = joins results of further samples. A portion of the library; the hit share may differ from the screen's.

Fields – NPYLR7 ag | NPYLR7 ag max-min
CC(C)c1cc(C2CC(=O)Nc3c2cnn3Cc2ccccc2Cl)on1 (stereo not drawn)
  6 | 5
O=C(NCC1CCCO1)c1cc(-c2ccc3c(c2)OCO3)nc2ccccc12 (stereo not drawn)
  8 | 2
COc1cccc(OCC(=O)OCc2cc(-c3ccc4c(c3)OCO4)on2)c1
  3 | 0
CCCN(CC#Cc1ccccc1)C(=O)c1cccn1C
  -4 | -12
CCCCCCc1cc2cc(-c3nnc(-c4ccccc4OC)o3)c(=O)oc2cc1O
  3 | 4
CC(=O)c1ccc(C(=O)N2CCCC(Nc3ccccc3)C2)s1 (stereo not drawn)
  -1 | -3
CC(=O)Cc1nsc(NC(=O)c2cccs2)n1
  -10 | -15
Cc1cccc(C2=NC(=Cc3cccc(C#N)c3)C(=O)O2)c1
  -1 | 27
CCCN1CCC(C(=O)NC(C)c2cccc3ccccc23)CC1 (stereo not drawn)
  11 | -4
CC(=O)Nc1ccc(N2C(=O)/C(=C/c3ccc(Cl)cc3)C=C2c2ccccc2)cc1
  10 | 16
COc1ccccc1S(=O)(=O)N1CCN(c2nc3ccccc3n2C)CC1
  5 | 0
Cc1cccc(C(=O)NCc2nnc(SCC(=O)Nc3ccccc3F)n2-c2ccc(Cl)c(Cl)c2)c1
  -6 | 4
CC1CCCCN1CCCCOc1ccccc1Br (stereo not drawn)
  3 | 1
Cc1cc(NC(=O)C2CC2c2ccc(F)cc2)n(C(C)(C)C)n1 (stereo not drawn)
  4 | 4
c1ccc(-n2ncc(CN3CCCC(c4ccn(Cc5cnn(-c6ccccc6)n5)n4)C3)n2)cc1 (stereo not drawn)
  0 | 2

Random excerpt: six entries already listed, in no set order.
Fields – NPYLR7 ag | NPYLR7 ag max-min
CC(=O)Cc1nsc(NC(=O)c2cccs2)n1
  -10 | -15
Cc1cc(NC(=O)C2CC2c2ccc(F)cc2)n(C(C)(C)C)n1 (stereo not drawn)
  4 | 4
CC1CCCCN1CCCCOc1ccccc1Br (stereo not drawn)
  3 | 1
COc1ccccc1S(=O)(=O)N1CCN(c2nc3ccccc3n2C)CC1
  5 | 0
Cc1cccc(C2=NC(=Cc3cccc(C#N)c3)C(=O)O2)c1
  -1 | 27
COc1cccc(OCC(=O)OCc2cc(-c3ccc4c(c3)OCO4)on2)c1
  3 | 0

Carrying on:
Fields – NPYLR7 ag | NPYLR7 ag max-min
CC1CCCCN1CN1C(=S)SC2=NC(=O)CCCN21 (stereo not drawn)
  -3 | -4
O=C1OC(c2cccc3ccccc23)=N/C1=C/C=C/c1ccccc1
  -7 | -10
CCCC(NC(=O)c1cc2ccccc2s1)c1nccn1C (stereo not drawn)
  -3 | -4
CCc1nnsc1C(=O)NCc1ccc(N(C)C)c(F)c1
  3 | 1
CC(C(=O)N1CCCC(C(N)=O)C1)N(C)Cc1cccc(C(F)(F)F)c1 (stereo not drawn)
  1 | 6
CC(=O)NC1=C(NC2CCCC2)C(=O)c2ccccc2C1=O
  1 | 5
Cc1ccc(CSc2nnc(NC(=O)CC(C)C)s2)cc1
  -8 | -1
Cc1cc(=O)[nH]c(=S)[nH]1
  -8 | -12
Cc1cc(C)nc(-n2ncc3c2CC(C)CC3=O)n1 (stereo not drawn)
  2 | 2
CC(C)(C)C(=O)NCCC(=O)OCc1ncc(-c2ccc(F)cc2)o1
  -3 | -3
COC(=O)c1ccc(Cn2c(C)c(C(=O)Nc3ccc(OC)c(OC)c3)sc2=O)o1
  10 | 4
CC(C(=O)NCCN1CCS(=O)(=O)CC1)c1cccc(Cl)c1 (stereo not drawn)
  1 | 3
CCc1nc2c(OCc3ccccc3)cccn2c1N(C)C(=O)c1ccncc1
  -1 | 5
CN1CC2(CCN(c3cnc4ccccc4n3)CC2)CC1C(=O)O (stereo not drawn)
  4 | 2
CCOC(=O)c1c(NC(=O)c2ccc3nonc3c2)c(-c2ccc(OC)cc2)cn1Cc1ccccc1
  8 | 10
COc1cccc(C(C2Sc3ncnn3C2=O)N2CCC(O)CC2)c1 (stereo not drawn)
  2 | 2
Cc1ccc2c(c1)c(=O)n(C)c1nnc(CN3CCCCC3C(C)NC(=O)OC(C)(C)C)n21 (stereo not drawn)
  -2 | -4
CCCCNC(=O)C1(C)CCCCN1Cc1ccc(-c2ccccc2)cc1 (stereo not drawn)
  4 | 2
CCOc1ccc(NC(=O)NCC2CCN(c3nc(Cc4ccc(F)cc4)ns3)CC2)cc1
  0 | 17
Cc1ccc(Cl)c(C(=O)N2CCOC(COc3ccc(F)cc3)C2)c1 (stereo not drawn)
  28 | 26
CCc1cc(N2CCN(c3ccccc3Cl)CC2)nc(SCc2ccc(C(=O)NCCN(C)C)cc2)n1
  10 | 7
Cc1cccc(C(=O)N(Cc2ccccc2)CC(F)(F)F)n1
  0 | 0
CCc1cccc(C)c1NC(=O)C1CC(=O)N(C2CCCC2)C1 (stereo not drawn)
  -6 | -10
CC(=O)OC[C@@H]1CN(Cc2ccccc2)C[C@H](n2cnc3c(N(C)C(C)C)ncnc32)O1
  -14 | -16
Cc1cccc(/C=C/C(=O)NCCc2ccccn2)c1
  11 | 11
ClC1(Cl)CC1CSc1nc2ccccc2[nH]1 (stereo not drawn)
  2 | 0
Cc1ccc(C(=O)N[C@H]2CO[C@H]3[C@@H]2OC[C@@H]3n2cc(CC3CCCCC3)nn2)cc1
  -1 | -7
CN1C(=S)N(C2CCCCC2)C(=O)/C1=C\c1ccc2c(c1)OCO2
  46* | 50*
COc1ccc(-c2nnc(SCC(=O)N/N=C\c3ccccc3Br)n2-c2ccccc2)cc1OC
  -4 | -10
CC(=O)N1CCCC1C(=O)NCC1CC2c3ccccc3C1c1ccccc12 (stereo not drawn)
  -7 | -7
Cc1nc(-c2ccccn2)[nH]c(=O)c1CC(=O)NCc1ccc2c(c1)OCO2
  8 | 3
CC(C)(C(=O)N1CCC1(C)C(=O)NS(=O)(=O)c1ccc(Br)cc1)c1ccccc1 (stereo not drawn)
  -2 | -6
CCC(=O)C(=O)NCC1CCCN(Cc2ccccn2)C1 (stereo not drawn)
  -7 | -11
CC(=O)Nc1ccc(/C(C)=N\Nc2nc(N3CCOCC3)nc(N3CCOCC3)n2)cc1
  -1 | -7
O=C(Nc1ccc(N2CCOCC2)cc1C(F)(F)F)NC1CC1
  3 | 5
CC(C)(C)c1ccccc1NC(=O)C1CCS(=O)(=O)C1 (stereo not drawn)
  0 | 0
C=CCn1c(SCCC)nc2c1c(=O)[nH]c(=O)n2C
  -4 | -6
O=C1Nc2ccccc2NC12CCN(Cc1cc3n(n1)CCCNC3)CC2
  1 | -6
Cc1ccc(C(CNC(=O)C(C)C)N2CCN(C)CC2)cc1 (stereo not drawn)
  -3 | -5
COc1cccc(-n2c(=O)[nH]c3c(C(N)=O)nc(-c4cccs4)nc32)c1
  12 | 2
O=C(O)c1ccc(CSc2nnc(-c3ccccc3Cl)n2-c2ccccc2F)cc1
  -3 | -8
O=C1CCN(CC(O)COc2ccccc2)c2ccc(F)cc2CN1Cc1ccccc1 (stereo not drawn)
  -1 | 11
Cc1ccc(C(CC(=O)OC(C)C)NC(=O)c2cnccn2)cc1 (stereo not drawn)
  2 | -3
CC1CCC(N(C)C(=O)NCc2ncc(-c3ccccc3)o2)CC1 (stereo not drawn)
  1 | -3
Cc1ccc(-c2cc(C(F)(F)F)n3ncc(C(=O)Nc4ccc(Cl)c(C(F)(F)F)c4)c3n2)cc1
  -16 | -12
COc1cccc(OCC(O)CNC(C)(C)CO)c1 (stereo not drawn)
  2 | 6
O=C(NCCCn1nnc2ccccc21)C1CCC(=O)N(Cc2ccccn2)C1 (stereo not drawn)
  6&1 | 2&0
COc1cc(NC(=O)c2csc(-c3cc4ccccc4n3C)n2)cc(OC)c1OC
  0 | -3
Cc1ccc(NC(=O)c2cccn(OCc3cccc([N+](=O)[O-])c3)c2=O)c(C)c1
  13 | 13
Cc1nnc(NC(=O)c2cc3c(s2)CCCC3)o1
  4 | 11
Nc1c(Br)cc2oc(-c3ccccc3F)nc2c1Br
  1 | -2
CNC(=O)CC1(CC(=O)NC)CCCCC1
  15 | 6
O=C(Nc1ncccc1O)c1cnn(-c2cccc(Cl)c2)c1
  -1 | -5
CCOC(=O)C1(CCOC)CCN(C(=O)c2ccccc2-c2cccc(C)c2)CC1
  5 | 1
CCOC(=O)c1nn(-c2ccccc2C)c(=O)cc1OS(=O)(=O)c1ccc2ccccc2c1
  9 | 9
CC(C)(C)OC(=O)NNS(=O)(=O)c1cccc([N+](=O)[O-])c1
  4 | 1
CCCCCN1CCN(c2nc3c(c(=O)[nH]c(=O)n3C)n2Cc2ccc(Cl)c(Cl)c2)CC1
  0 | 5
COc1cccc2sc(N(CCN(C)C)C(=O)c3cc(C)on3)nc12
  2 | 1
c1ccc2sc(N3CCCC(NC4CCSCC4)C3)nc2c1 (stereo not drawn)
  9 | 3
Cn1c(=O)cc(OC(=O)c2ccc(S(C)(=O)=O)c(Cl)c2Cl)c2ccccc21
  5 | 9

Next results.
Fields – NPYLR7 ag | NPYLR7 ag max-min
c1ccc(COC2CCCN(Cc3ccsc3)C2)nc1 (stereo not drawn)
  -5 | -4
CC(C)(C#N)CCCN1CCc2cc(S(N)(=O)=O)ccc21
  -24 | -25
CC(Cc1ccccc1)(NC(=O)CN)c1ccccc1 (stereo not drawn)
  -1 | -5
COc1ccc(C(=O)N2CCCN(CC3CC3)C(C(C)C)C2)c(OC)c1 (stereo not drawn)
  12 | 11
Cc1csc2nc(O)c(C(=O)NCCCN3CC(C)CC(C)C3)c(=O)n12 (stereo not drawn)
  -1 | 25
Cc1ccc(Nc2nnc(SC(C)C(=O)N3CCOCC3)s2)cc1C (stereo not drawn)
  6 | 5
Cc1cccc(-n2c(C)nnc2SC(C)C#N)c1 (stereo not drawn)
  14 | 8
Cc1cc(OC(=O)c2ccc(C)c(C)c2)c([N+](=O)[O-])c(=O)[nH]1
  1 | 1
CCOc1ccc(N2C(=O)C3N=NN(Cc4cc(C)ccc4C)C3C2=O)cc1 (stereo not drawn)
  -3 | -5
C=CCCC(=O)Nc1sc2c(c1C(=O)OCC)CCC2
  -6 | -9
COc1ccc(NC(=O)CCN2C(=O)c3cccc([N+](=O)[O-])c3C2=O)c(OC)c1
  -3 | -10
CCN(CC)c1ccc(C(=O)Cn2c(C)c(C(=O)NC3CCCC3)sc2=O)cc1
  -3 | -7
O=C(NCCc1ccccc1)c1cnc2c(ccn2C2CCCCC2)c1
  -8 | -8
CN(C)CCCNc1nc2cc(-c3ccc(C(=O)N4CCN(C)CC4)cc3)sc2c(=O)n1C
  7 | 3
C[C@]12CCC3c4ccc(O)cc4C[C@@H](CCCCCCCCCS(=O)CCCC(F)(F)C(F)(F)F)C3C1CC[C@@H]2O (stereo partly drawn)
  -3 | -3
Cc1ccc(-c2nn(CC(N)=O)c(=O)c3nc(C)sc23)c(C)c1
  2 | 0
COc1ccccc1CCC(=O)N1CCC(n2cnc3cc(C(F)(F)F)ccc32)CC1
  23 | 13
COCC(C)(C)NC(=O)Cc1ccc(Br)s1
  5 | 4
CCCN1CC(NC(=O)CC23CC4CC(CC(O)(C4)C2)C3)CC1=O (stereo not drawn)
  1 | 1
CC1(C)CCCC1N(CC#N)Cc1ccccc1 (stereo not drawn)
  4 | 1
CCOc1ccccc1C(=O)NCCOc1ccc2nnc(-c3ccc(OC)cc3)n2n1
  -13 | -18
Cc1cccc(-c2ncc(CNCCNC(=O)c3ccccc3Cl)cn2)c1
  13 | 1
Cc1ccccc1-n1ncc(C(=O)NCc2cccnc2)c1C
  20 | 29
CC(=O)N(CCn1cccn1)c1nc2ccccc2s1
  -10 | -13
COc1ccccc1C1CN(Cc2cccc(O)c2)Cc2ccccc2O1 (stereo not drawn)
  0 | -7
O=C(NC1(c2nccs2)CCCC1)c1cc(C2CC2)[nH]n1
  -18 | -19
Cn1c(=O)[nH]c(=O)c2c1nc(Sc1nc3ccccc3[nH]1)n2CCCc1ccccc1
  1 | 0
O=S(=O)(NCCNc1nc(-c2cccc(Br)c2)nc2ccccc12)c1cccc(C(F)(F)F)c1
  0 | 0
CCOC(=O)c1cn[nH]c1S(=O)(=O)Nc1ccc(C)c(Cl)c1
  -6 | -11
COc1ccc(Nc2cc(C)nc(N3CCN(C(=O)Cc4ccccc4)CC3)n2)cc1
  7 | 0
Cc1ccc(C)c(NC(=O)CSc2nc(=O)n(CCCN(C)C)c3c2CCC3)c1
  4 | 15
O=C(NCC12C=CC(O1)C1C(=O)N(c3ccccc3F)C(=O)C12)c1ccc(Cl)c([N+](=O)[O-])c1 (stereo not drawn)
  -6 | -8
CSc1cccc(NC(=O)Nc2ccc(Nc3cc(-n4ccnc4)ncn3)cc2)c1
  -14 | -20
CCCCC(=O)Oc1c(S(=O)(=O)c2ccc([N+](=O)[O-])cc2)c(C)nn1-c1ccccc1
  0 | 17
CSc1ncccc1C(=O)N1CCN(c2c(Cc3ccccc3)c(C)nc3ncnn23)CC1
  21 | 10
CC(CSc1nc2ccccc2s1)Cn1c(N2CCOCC2)nc2c1c(=O)[nH]c(=O)n2C (stereo not drawn)
  -7 | -11
O=C1CC(c2ccccc2)N(C(=O)C2CCN(C(=O)/C=C/c3ccccc3)CC2)CCN1 (stereo not drawn)
  10 | 10
CC(=O)CCc1ccc(OCC(O)CN2CCNC(=O)C2)cc1 (stereo not drawn)
  2 | 1
C#CCOCC(O)CN(CCC(C)C)Cc1cccc(OC)c1 (stereo not drawn)
  13 | 17
COc1cccc(CN(C)S(=O)(=O)c2ccc(C(F)(F)F)cc2)c1OC
  3 | 0
CCc1cc(CNC(=O)c2ccc(OC3CCN(C(C)=O)CC3)c(OC)c2)on1
  -3 | -6

Compound profiles, from the list above. Order of values: NPYLR7 ag | NPYLR7 ag max-min
O=C(NCC12C=CC(O1)C1C(=O)N(c3ccccc3F)C(=O)C12)c1ccc(Cl)c([N+](=O)[O-])c1 (stereo not drawn) in the list: -6 | -8
Cc1ccc(C)c(NC(=O)CSc2nc(=O)n(CCCN(C)C)c3c2CCC3)c1 in the list: 4 | 15
CSc1cccc(NC(=O)Nc2ccc(Nc3cc(-n4ccnc4)ncn3)cc2)c1 in the list: -14 | -20
